# Beta2AR agonist – human beta-2 adrenergic receptor agonism by FAP. AID 504454. response, % (concentration not given with the values). 340,000 tested, 0.43% active. Am2.2-beta2AR cells, FAP receptor internalization, flow cytometry; reference of the scale not given here. P07550;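 active means response above a set limit, near 3 SD of response in nonfluorescent compounds, cut at about 42% in these data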;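 further: stock transfer was 100 nL into about 11 µL; a reference agonist was the positive control; negative values mostly stem from fluorescent compounds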
# Target sequence (P07550 whole entry, looked up): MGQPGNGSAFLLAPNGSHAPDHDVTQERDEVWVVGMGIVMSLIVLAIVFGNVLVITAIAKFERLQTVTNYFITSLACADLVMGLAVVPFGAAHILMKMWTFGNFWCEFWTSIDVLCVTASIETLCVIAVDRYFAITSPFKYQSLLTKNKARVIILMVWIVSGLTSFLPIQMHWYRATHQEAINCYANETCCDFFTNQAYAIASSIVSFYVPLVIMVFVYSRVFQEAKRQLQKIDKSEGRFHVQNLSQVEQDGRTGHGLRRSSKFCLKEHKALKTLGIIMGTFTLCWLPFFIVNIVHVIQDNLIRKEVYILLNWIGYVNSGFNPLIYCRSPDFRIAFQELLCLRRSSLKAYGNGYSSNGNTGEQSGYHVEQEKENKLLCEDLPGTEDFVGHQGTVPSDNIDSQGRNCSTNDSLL
# UCH37 inh – blocks the human deubiquitinase UCH37 | 330,000 tested, 0.33% active | inhibition, % (concentration not given with the values) | Q9Y5K5 | purified proteasome/UCH37, Ub-AMC cleavage fluorescence;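 active means mean of two replicates above 20%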;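 further: 0% = compound-free wells with enzyme and 100% = wells lacking proteasome; stock transfer was 100 nL into about 20 µL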
# Target sequence (Q9Y5K5 whole entry, looked up): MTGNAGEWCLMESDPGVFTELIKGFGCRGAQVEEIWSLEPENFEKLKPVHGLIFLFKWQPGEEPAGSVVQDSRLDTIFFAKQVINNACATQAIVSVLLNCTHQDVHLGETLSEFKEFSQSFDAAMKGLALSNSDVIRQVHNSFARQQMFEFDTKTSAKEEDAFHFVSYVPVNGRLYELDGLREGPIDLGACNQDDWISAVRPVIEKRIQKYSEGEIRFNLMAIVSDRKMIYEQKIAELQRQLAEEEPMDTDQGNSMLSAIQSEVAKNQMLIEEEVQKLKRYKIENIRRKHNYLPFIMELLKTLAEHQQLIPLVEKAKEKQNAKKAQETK
#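 Reagent: Ub-AMC substrate; assay system: Proteasome-associated human UCH37 deubiquitinase; controls: no-proteasome and no-compound wells; read-out: % inhibition of Ub-AMC cleavage fluorescence; timing: 30 min preincubation with enzyme, 25 min cleavage at room temperature; signal: AMC fluorescence from Ub-AMC cleavage, excitation 355 nm, emission 460 nm; buffer or medium: Tris-HCl pH 7.4 plus ovalbumin, ATP-MgCl2, DTT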
# A1 inh – inhibitors of the anti-apoptotic protein A1, read as caspase activation; 330,000 tested, 0.066% active; MEF A1-2A-BIM cells, Caspase-Glo 3/7 luminescence, 3 h; percent of clofoctol response, vehicle zero; AID 2462; caspase activation, % (concentration not given with the values);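 active means over half of replicate activation scores above 10%, or exactly half above 10 with the replicate mean above 10; inconclusive means replicate mean below 10 yet half the replicates above 10; inactive means over half of replicates below 10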;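 further: wells of about 30 µL received 50 nL stock; many hits fall short of the cut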
# Vif A3G – inhibitors of Vif binding to APOBEC3G peptide, primary screen, biochemical, TR-FRET, GST-Vif 1-94, biotin-A3G peptide, dose response retest (AID 1117319). TR-FRET GST-Vif / biotin-A3G peptide binding; higher % means a stronger effect; test concentration not given here; strong numbers were not always called active. 260,000 tested, 0.57% active. one-dose inhibition, %; IC50 in µM for titrated hits;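 active means above the screen mean plus three standard deviations and confirmed in dose response; inconclusive means results disagree or hit not tested in dose response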;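 further: Vif residues 1-94 fused to GST binding biotinylated APOBEC3G peptide 110-148; 0% = full assay without inhibitor and 100% = GST in place of GST-Vif; retest series ran down from 100 µM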
# LANA-H2B inh – blocks KSHV LANA binding to histone H2A/H2B | inhibition, % (concentration not given with the values) | AID 2629 | Q9QR71 | 320,000 tested, 0.6% active | cell-free LANA-H2A/H2B peptide, fluorescence polarization; in the data active means inhibition mostly above about 10%, no sharp cut-off; inactive means mostly below about 6.7%;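 further: stock transfer was 7.5 nL into about 10 µL; 0% = median of vehicle wells and 100% = median of positive control wells; one replicate is shown; the record names a cut of 25% in any replicate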
# E coli growth – blocks Escherichia coli growth; OD600, 23 h; hits give low values; 330,000 tested, 0.21% active; OD600 absorbance (test concentration not listed);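 active means OD600 absorbance below the run mean of sample wells minus 3.6 SD, in any replicate, cut at about 0.56 in these data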;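 further: stock transfer was 300 nL into about 60 µL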
# HNF4A DNA FP – change in binding of human HNF4 alpha to DNA; AID 1224865; HNF4a-FITC DNA binding, fluorescence polarization, 1 h; activity change, % at 10 µM; 360,000 tested, 0.3% active; P41235; in the data active means activity change above about 30%, passing the limit was not always enough;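 further: controls were the assay level and a saturating level of protein; the project sought stronger binding though the title names inhibitors; some compounds called inactive have numbers as strong as hits; positive values seem to mean higher polarization but the record does not say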
# The depositor's hits bear a star; i = inactive; ? = inconclusive; . = not tested or not shown.
SMILES,Beta2AR agonist,UCH37 inh,A1 inh,Vif A3G,LANA-H2B inh,E coli growth,HNF4A DNA FP
C/C(=N\NC(=S)NCc1ccccc1)c1ccccc1,0,.,0.1,0%,0.5,.,0.3
O=C(/C=C/c1ccc([N+](=O)[O-])s1)N1CCCCC1,0,11,-0.9,.,7.0,0.71,4.0
Cc1c(OC(C)C(=O)O)ccc2c3c(c(=O)oc12)CCCC3 (stereo not given),-1,-236,-2.6,-6%,1.0,0.67,-0.6
OCc1ccc2c(c1)c(-c1ccc3c(c1)OCCO3)c(-c1ccccc1)n2-c1ccccc1,30,-21,-0.6,.,-7.7,0.73,-0.9
CC(=O)Nc1ccc(-n2nnnc2SCC(=O)N2CCN(C(=O)c3ccco3)CC2)cc1,-1,5.3,-0.2,8%,0.2,0.7,0.2
COc1ccc(/C=C(/NC(=O)c2cccs2)C(=O)Nc2ccc(C)cc2)cc1OC,3,3.4,-0.6,.,3.6,0.72,3.1
COC(=O)/C=C1\SC(=Nc2ccc(Cl)c(Cl)c2)NC1=O,-4,.,0.1,20%,2.6,.,-0.1
O=C(COc1ccc(Cl)cc1[N+](=O)[O-])NC1CCCCC1,-10,0.3,-0.1,.,0.0,0.72,-2.1
CCCn1c(SCC(=O)N2CCOCC2)nnc1-c1ccncc1,-5,1.0,0.3,.,3.8,0.64,5.0
S=c1c2c(nc3nc[nH]n13)CCC2,-1,7.6,0.0,.,1.5,0.64,2.1
Cc1nc(-c2ccc(F)cc2)c(CC(=O)N2CCN(S(=O)(=O)c3ccccc3Br)CC2)s1,2,5.8,-0.9,.,1.1,0.69,1.1
COc1ccc(/C=C2/Sc3ccc(C(=O)NCCN4CCCCCC4)cc3NC2=O)cc1,20,1.4,-0.4,.,-2.5,0.66,10

# The closing four compounds of the section before open the next one.
SMILES,Beta2AR agonist,UCH37 inh,A1 inh,Vif A3G,LANA-H2B inh,E coli growth,HNF4A DNA FP
CCCn1c(SCC(=O)N2CCOCC2)nnc1-c1ccncc1,-5,1.0,0.3,.,3.8,0.64,5.0
S=c1c2c(nc3nc[nH]n13)CCC2,-1,7.6,0.0,.,1.5,0.64,2.1
Cc1nc(-c2ccc(F)cc2)c(CC(=O)N2CCN(S(=O)(=O)c3ccccc3Br)CC2)s1,2,5.8,-0.9,.,1.1,0.69,1.1
COc1ccc(/C=C2/Sc3ccc(C(=O)NCCN4CCCCCC4)cc3NC2=O)cc1,20,1.4,-0.4,.,-2.5,0.66,10
CCCCNC(=O)C1CC(=O)N(CCC(C)C)C1 (stereo not given),-6,-6.7,0.5,-3%,7.6,0.71,1.1
CCOC(=O)CNC(=O)Cn1cnc2c(oc3ccccc32)c1=O,-4,4.6,0.8,-9%,-2.1,0.7,0.8
COC(=O)C(Cc1ccc(O)cc1)NC(=O)CCC(=O)Nc1ccc(S(N)(=O)=O)cc1 (stereo not given),.,0.5,-0.3,?,-1.3,0.72,1.9
CC(=O)Nc1ccc(SCC(=O)Nc2ccc(Cl)cn2)cc1,2,-7.6,0.2,-14%,5.8,0.72,-1.2
COc1ccc(/C(C)=N/NC(=O)c2nnn(-c3nonc3N)c2-c2ccccc2)cc1,3,.,0.0,.,2.9,.,8.5
COCc1c(C(=O)Nc2ccc(Cl)cc2F)oc2ccccc12,-10,-8.3,-0.1,-10%,-1.5,0.72,-0.6
Cc1ccnc(N/C=C(/NC(=O)c2ccccc2)C(=O)N/N=C\c2ccc(F)cc2)n1,0,.,0.0,31%,0.2,.,-2.1
Cc1ccc(CNC(=O)C2CCCC2)cc1,-18,0.7,-0.3,.,-0.3,0.69,2.7
O=C1CCCc2c1cc(C(=O)Nc1ccc(Cl)cn1)c(=O)n2-c1ccccc1,-17,4.1,1.0,-8%,-3.9,0.69,3.0
CCN(CC(=O)Nc1c(F)cccc1F)C(=O)c1n[nH]c2ccccc12,-2,0.2,-0.5,-5%,-1.0,0.7,0.8
Cc1cc(=O)c2ccc3ccccc3c2[nH]1,-4,-11,-0.6,15%,0.2,0.69,0.1
Cc1cccn2c(=O)c3cc(C(=O)NC4CCCC4)c(=N)n(CC4CCCO4)c3nc12 (stereo not given),-45,i,-0.3,.,-2.3,0.65,1.4
Cc1ccc(SCC(=O)c2c(C)nc3cc(C)ccn23)cc1,-3,4.3,-0.1,-3%,-2.6,0.66,2.2
O=S(=O)(Cc1ncc(C(F)(F)F)cc1Cl)c1ccccc1,1,0.6,0.7,.,0.1,0.7,-5.6
CCc1ccc(OCCNC(=O)c2ccc(S(=O)(=O)N(C)C)cc2)cc1,-1,4.8,0.7,-2%,0.8,0.7,2.9
CC(=O)N1CCC(C(=O)NC2CCCc3c2cnn3-c2cc(F)cc(F)c2)CC1 (stereo not given),1,1.8,0.8,.,3.1,0.64,2.0
CC(C)Oc1cc(NC(=O)CS(=O)CC(=O)N(C)C)c(Cl)cc1Cl (stereo not given),7,4.8,0.3,2%,-1.2,0.7,-1.1
COC(=O)c1cccc(NC(=O)CN2CCN(c3ccc(OC)cc3)CC2)c1,18,-0.2,-0.4,12%,0.6,0.61,3.6
CCc1ccccc1NC1c2ccccc2C(=O)N1c1cccnc1 (stereo not given),6,2.3,-1.0,15%,-4.9,0.73,1.9
NC(=O)NCC(=O)N1CCC(C(O)(c2ccccc2)c2ccccc2)CC1,-4,0.6,0.1,26%,1.9,0.67,-1.1
CCC(CC)COC(=O)C1=C(C)NC(=O)NC1c1ccc([N+](=O)[O-])cc1 (stereo not given),-1,1.5,-0.6,.,-1.2,0.66,3.2
CCOc1ccc(S(=O)(=O)N2CCC(C(N)=O)CC2)c2ccccc12,-11,3.5,0.9,10%,1.8,0.71,-1.0
N=C1SC(CC(=O)Nc2ccccc2[N+](=O)[O-])C(=O)N1c1ccccc1 (stereo not given),1,4.6,-0.2,30%,3.1,0.65,-0.5
CCOC(=O)C1CCCN(C(=O)CN2C(=O)/C(=C/c3ccc(OC)cc3)Oc3ccccc32)C1 (stereo not given),12,-137,0.3,2%,2.4,0.63,-2.7
COc1ccc(NC(=O)COC(=O)c2cnccn2)cc1Cl,3,2.8,1.4,0%,-3.5,0.8,1.8
C=CCN1c2ccccc2C(=O)CS1(=O)=O,6,-3.4,-0.4,.,3.3,0.71,-2.4
CC(CC(=O)NCCc1ccc(S(N)(=O)=O)cc1)c1ccccc1 (stereo not given),12,0.1,0.2,2%,-1.4,0.68,0.5
CC(C)(C)C(=O)/C(C#N)=C/c1ccc(O)cc1,-3,3.6,-0.1,23%,-0.7,.,3.3
CCn1c(=O)n(CC)c2cc(S(N)(=O)=O)c(C)cc21,-1,-0.3,0.2,11%,-0.5,0.64,-0.7
COCc1cc(=O)[nH]c(N2CCN(Cc3ccc4c(c3)OCO4)CC2)n1,13,0.8,1.3,-5%,-2.4,0.66,4.0
O=C(c1cccc(F)c1F)N1CCCc2ccccc21,-4,2.8,-0.4,-1%,2.4,0.63,0.7
COc1ccc(C2C(C(=O)NCCN(C)C)c3ccccc3C(=O)N2C)cc1OC (stereo not given),-5,2.5,-0.3,64%,-0.8,0.71,2.1
FC(F)(F)c1ccc(C2[C@H]3CN(Cc4cccnc4)[C@H](c4ccccc4)C34CC2(c2ccccc2)C4)cc1 (stereo not given in full),3,4.1,1.9,.,-1.9,.,-0.5
Cc1ccc2c(c1)nnn2C1CCN(C(=O)Nc2ccccc2C)CC1,-18,-1.4,-0.1,.,0.3,0.69,0.7
COc1ccc(-c2c(C#N)c(N)nc3c2CCc2ccccc2-3)cc1OC,.,-298,0.2,1%,4.1,0.71,.
CC(C)c1cc(C(=O)NCCc2ccccc2)no1,0,1.4,-0.7,-9%,-0.5,0.65,1.0
COc1ccc(OC)c(NC(=O)c2ccccc2OC(C)=O)c1,3,-1.1,1.0,.,0.1,0.61,0.8
CCOC(=O)c1cc2c(n(-c3ccccc3)c1=O)CC(C)(C)CC2=O,0,-12,-0.4,90%,0.9,0.68,1.2
CCCCCCCn1ccc(O)c(CC(=O)OC)c1=O,1,0.6,1.5,4%,0.2,0.73,6.0
COC(=O)c1sccc1NC(=O)c1cc(-c2cccc(C)c2)nc2ccccc12,7,-3.0,-1.3,-2%,3.9,0.73,-3.7
N#CC(c1ccccc1)N(CCCCl)C(=O)c1ccc(Br)cc1 (stereo not given),-4,1.7,-0.5,.,-1.8,0.69,2.5
Cc1cc(NC(=O)CSc2ccc(F)cc2)no1,1,-1.2,0.1,-17%,0.8,0.65,3.2
COc1ccc(C(=O)Nc2nc(-c3ccc([N+](=O)[O-])cc3)c(-c3ccc(OC)cc3)s2)cc1,1,-2.1,0.5,.,5.7,0.73,21
CCOC(=O)c1cc(C)sc1NC(=O)CN1CCN(C(=O)C2CCCO2)CC1 (stereo not given),2,0.4,0.3,.,-0.5,0.79,4.3
COc1ccc(NC(=O)C(c2ccccc2)N(C)C(=O)c2ccc(=O)[nH]c2)cc1 (stereo not given),-3,1.0,0.1,-8%,7.8,0.7,-5.0
Cc1ccc2ccc(S(=O)(=O)NCc3ccco3)cc2c1,3,3.6,0.9,.,4.0,0.67,-0.9
CCOc1ccccc1-c1nnc(SCC(=O)NC2CC2)n1CC,1,2.9,-0.2,.,-6.6,0.71,-3.2
Cc1nc2ccccn2c1C(=O)NC1CCCC1,1,2.5,0.2,-4%,-2.2,0.7,-1.7
Cc1cc(C)cc(NC(=O)[C@H](NC(=O)[C@@H]2Cc3ccccc3CN2)c2ccccc2)c1,5,2.0,-2.3,3%,-2.3,0.64,0.7
CCN(CC)S(=O)(=O)c1ccc(N2CCCC2)c(NC(=O)CN2C(=O)NC3(CCCC3)C2=O)c1,-6,0.3,-0.6,-5%,7.8,0.69,5.4
Cc1ccc(C(=O)Nc2nccs2)cc1,0,-0.5,-5.2,.,2.9,0.69,3.6
Cc1ccc(S(=O)(=O)Oc2ccc(/C=C(/NC(=O)c3ccccc3)C(=O)O)cc2)cc1,3,2.4,-0.4,.,-0.1,0.69,0.7
NNC(=O)c1csc(-c2ccccc2)n1,6,4.5,0.7,.,3.8,0.71,1.3
CCCS(=O)(=O)NCc1ccc2c(c1)cc(C)n2C,21,2.2,-0.2,?,-5.1,0.72,-0.2
CCC1Oc2ccc(C)cc2N(CC(=O)NC2CCCCC2)C1=O (stereo not given),-1,1.5,0.5,-5%,4.0,0.72,-0.4
CC1CCCC(C)N1C(=O)CSc1nc2c(c(=O)n(C)c(=O)n2C)n1C (stereo not given),-8,4.3,0.2,.,4.8,0.66,0.7
CCCSc1nc2c(c(=O)[nH]c(=O)n2C)n1Cc1ccc(C)cc1,-3,3.7,0.7,-7%,0.3,0.67,-2.0
Cc1ccc(C23CC4CC(CC(C(=O)N5CCN(C)CC5)(C4)C2)C3)cc1,14,2.5,-0.5,3%,-2.5,0.67,5.4
Cc1ccc(-c2nnn(CC(=O)N(c3cccc(F)c3)C(C(=O)NC(C)(C)C)c3ccco3)n2)o1 (stereo not given),5,-0.8,2.3,-6%,1.6,0.68,3.1
CCC(C)c1ccc(NC(=O)COC(=O)c2nc3nccc(C)n3n2)cc1 (stereo not given),-2,1.1,-0.3,3%,-6.6,0.66,2.9
CC(C)c1ccccc1NS(C)(=O)=O,.,1.5,-0.5,0%,-1.1,0.67,.
Cc1c(C(=O)OCCOc2ccccc2)[nH]c2c1C(=O)CCC2,6,0.7,-1.3,-3%,0.7,0.71,-2.3

# Bioassay records from PubChem.
